# Source: PubChem BioAssay
# APEX1 inh = inhibitors of human APE1 endonuclease; recombinant APE1, TAMRA/BHQ-2 abasic DNA cleavage fluorescence; Potency, µM (top dose mostly 65.8 µM), without a hit: top-dose activity change, negative = inhibition, usual class: inhibitors; hit rate 0.35% among 350,000;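 also: potency is read from the fitted curve at half-maximal effect; plate controls were vehicle for no effect and reference inhibitor for full effect; nearly all actives have a fitted effect of over 55% in size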
# Target sequence (P27695 whole entry, looked up): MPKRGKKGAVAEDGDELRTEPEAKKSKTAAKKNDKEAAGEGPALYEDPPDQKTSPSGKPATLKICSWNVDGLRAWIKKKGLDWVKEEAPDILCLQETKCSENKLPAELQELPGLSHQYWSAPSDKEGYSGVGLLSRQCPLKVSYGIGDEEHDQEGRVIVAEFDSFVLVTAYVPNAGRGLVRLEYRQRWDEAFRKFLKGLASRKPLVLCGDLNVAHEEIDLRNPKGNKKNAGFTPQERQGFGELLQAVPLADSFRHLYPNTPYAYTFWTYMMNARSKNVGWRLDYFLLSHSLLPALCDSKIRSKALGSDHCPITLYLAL
#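 Compound pre-exposure to 0.75 nM APE1, 15 min at ambient temperature. Reaction initiated with 50 nM TAMRA/BHQ-2 THF substrate, read immediately in kinetic mode, 525 nm excitation, 598 nm emission.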
# Pol kappa inh = inhibitors of human DNA polymerase kappa. Q9UBT6. purified Pol kappa, fluorescent DNA synthesis assay, 10 min. Potency, µM (highest dose often 107 µM), for the others: at the highest dose activity, negative = inhibition, most hits filed as inhibitors. hit rate 0.53% among 400,000. AID 588579; also: potency is read from the fitted curve at half-maximal effect; % is scaled to controls: 0 for no effect and ±100 for the full control effect
#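 50 nM final substrate added after 15 min RT preincubation of 10 nM Pol kappa with compound; fluorescence read at 0 and 10 min.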
# ERG Ets-DNA blk = ERG Ets/DNA interaction inhibition | fluorescence polarization, His-ERG Ets domain / labelled DNA | Potency, µM (series often up to 76.9 µM), for the others: at the highest dose FP activity, negative = inhibition, hits mostly inhibitors | hit rate 0.028% among 370,000; active = well fitted inhibition curve with a large enough effect in the polarisation, with a control signal flat; inconclusive = small, poorly fitted or top-dose-only effect, or effect the other way, or a change in a side signal; inactive = no such curve, though single readings can be large or run the other way; the % refers to the polarisation;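 also: polarization taken with two DNA probes labelled with fluorescein and Texas red; potency is read from the fitted curve at half-maximal effect; % of control where 0% means no effect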
#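 His-tagged ERG Ets domain (1 uM in the protein solution; 300mM KCl, 50mM Tris-HCl, 1mM EDTA, 1mM DTT, pH 7.5) received compound, then a probe mix of 5 nM fluorescein-DNA and 100nM Texas-615-DNA. Fluorescence polarization was read for both dyes.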
# LDHA block = inhibitors of human lactate dehydrogenase A | P00338 | hit rate 0.15% among 480,000 | AID 1347041 | activity change, % (values are at about 110 or 230 µM) | purified LDHA, NADH/diaphorase-resazurin fluorescence; stronger effect = lower value; in the data active = activity change below about -30%; inconclusive = mostly about -25% to -30%;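 also: plate controls were DMSO wells for no effect and wells without enzyme for full effect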
#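 Human LDH5 (2 nM) was incubated with 0.06 mM NADH and 0.2 mM pyruvate for 5 min at room temperature in Tris pH 7.4. Remaining NADH was coupled through diaphorase/resazurin, and resorufin fluorescence was read at 0 and 20 min.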
# Anesthetic bind = binds horse apoferritin like a general anesthetic; hit rate 0.074% among 350,000; apoferritin/1-aminoanthracene competitive binding, fluorescence; Potency, µM (highest dose often 77.5 µM), for the others: at the highest dose activity change, negative = displacement, actives largely listed as inhibitors; P02791; AID 485281; also: potency is read from the fitted curve at half-maximal effect; % is scaled to controls: 0 for no effect and ±100 for the full control effect; nearly all actives have a fitted effect of over 20% in size
# Target sequence (P02791 2-175 limits assumed): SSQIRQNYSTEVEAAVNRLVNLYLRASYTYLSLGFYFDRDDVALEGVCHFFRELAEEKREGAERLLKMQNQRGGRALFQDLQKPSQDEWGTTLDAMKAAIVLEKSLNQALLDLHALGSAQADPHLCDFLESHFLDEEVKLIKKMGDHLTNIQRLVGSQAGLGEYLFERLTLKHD
#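 Horse-spleen apoferritin (10 uM) was mixed with 50% saturated 1-aminoanthracene in PBS, exposed to compounds for 10 min at room temperature, and read for fluorescence (ex 380 nm, em 535 nm). Competitive displacement was fitted with a four-parameter Hill equation.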
# * hit, by the source's call; ? = inconclusive; . = no result given; & = joins results of further samples; [ ] = another dose, or the depositor's remark. Unless noted, calls follow the shape of the dose curve; as a rule, active = well fitted curve in the direction sought with a large enough effect; inconclusive = small, poorly fitted or top-dose-only effect, or another doubt; inactive = no such curve, though single readings can be large; an effect the other way counts as inactive or inconclusive. A portion of the library. The share of hits here may be higher or lower than overall.
# The line under a structure holds: APEX1 inh	Pol kappa inh	ERG Ets-DNA blk	LDHA block	Anesthetic bind
O=c1[nH]c(=O)n([C@@H]2C[C@H](O)[C@H](CO)O2)cc1C(F)(F)F
 : 10%[21 µM]	-4%[12 µM]	.	.	9%[29.3 µM]
CCCCCCCCCCCC(=O)O[C@H](CC(=O)O)C[N+](C)(C)C
 : 1%	-6%[19.4 µM]	.	.	.
CCCCC/C=C\C/C=C\CCCCCCCC(=O)O
 : 10%&6%&9%	?	.	.	-5%
CCCCC(CC)C(=O)O (centres undefined)
 : 26%&7%	3%	1%	-8	.
NC(=O)C1CCN(C(=O)CCc2nc3sc4c(c3c(=O)[nH]2)CCCC4)CC1
 : -25%	?	0%	-1&8	.
CC(=O)Oc1c(C)c(C)c2c(c1C)CCC(C)(CCCC(C)CCCC(C)CCCC(C)C)O2 (centres undefined)
 : 2%&-5%&2%&-3%	-16%	4%	-6	4%&1%
C[C@]12CCC3c4ccc(O)cc4CCC3C1CC(O)C2O (some centres undefined)
 : -3%	-5%[60.1 µM]	.	.	-2%
Cc1cn([C@H]2C[C@H](N=[N+]=[N-])[C@H](CO)O2)c(=O)[nH]c1=O
 : .	-2%[60.1 µM]	.	.	.
N#C/C(=C\c1ccc(O)c(O)c1)C(=O)c1ccc(O)c(O)c1
 : 0.095µM*	0.34µM*	48%[activator]	-90*	.
C[C@@H](C(=O)O)c1cccc(C(=O)c2ccccc2)c1
 : .	-7%[12 µM]	.	.	3%[29.3 µM]
Cc1c(OCC(F)(F)F)ccnc1CS(=O)c1nc2ccccc2[nH]1 (centres undefined)
 : 3%	-5%[60.1 µM]	-4%	-14	-16%
N[C@H](CO)C(=O)O
 : -1%&2%	-10%[60.1 µM]	.	.	-6%
CN1CCCN=C1/C=C\c1cccs1
 : 0%[21 µM]	1%[12 µM]	.	.	-9%[29.3 µM]
CNc1ccc([N+](=O)[O-])cc1
 : 25%&-4%	7%	3%	-4	.
OCC(O)CO
 : 2%&3%	3%[60.1 µM]	.	.	.
CSC(=N)N
 : 0%&-3%	-9%[60.1 µM]	.	.	.
Cc1cccc(NC(=O)CCc2nc3sc4c(c3c(=O)[nH]2)CCCC4)n1
 : -28%	?	12%	2	.
CN1CCN(CC/C=C2/c3ccccc3Sc3ccc(S(=O)(=O)N(C)C)cc32)CC1
 : ?	?	-12%	-11	-13%
COc1ccc2cc([C@@H](C)C(=O)O)ccc2c1
 : 22%	-12%	13%	-7	.
CC(C)c1cnc(NC(=O)Cc2ccccc2)s1
 : 0%	-1%[19.4 µM]	.	.	?

# Overlap with the part before: three entries, then new ones.
# The line under a structure holds: APEX1 inh	Pol kappa inh	ERG Ets-DNA blk	LDHA block	Anesthetic bind
CN1CCN(CC/C=C2/c3ccccc3Sc3ccc(S(=O)(=O)N(C)C)cc32)CC1
 : ?	?	-12%	-11	-13%
COc1ccc2cc([C@@H](C)C(=O)O)ccc2c1
 : 22%	-12%	13%	-7	.
CC(C)c1cnc(NC(=O)Cc2ccccc2)s1
 : 0%	-1%[19.4 µM]	.	.	?
O=C(O)CCC(=O)C(=O)O (tested in a mixture with another compound)
 : 1%	-8%[60.1 µM]	.	.	6%
O=C(O)C1CCN(S(=O)(=O)/C=C/c2ccccc2)CC1
 : -3%	-6%	.	3	-10%
CN1C(C(=O)Nc2ccccn2)=C(O)c2sccc2S1(=O)=O
 : 2%	-17%	-2%	-7	-6%
O=C(O)CC(O)C(=O)O (centres undefined)
 : 15%	5%[19.4 µM]	-1%	0	-2%
COC(=O)[C@H]1[C@H]2C[C@H]3c4[nH]c5ccccc5c4CCN3C[C@@H]2CC[C@@H]1O
 : 8%&15%	-12%&10%	10%&-17%	0&-1	.
NCCCCCN
 : -4%	14%[60.1 µM]	.	.	2%
CC1=C(C)C(=O)C(CCCCC#CCCCC#CCO)=C(C)C1=O
 : ?	-10%[60.1 µM]	7%	15	?

# An excerpt taken from the entries so far:
# The line under a structure holds: APEX1 inh	Pol kappa inh	ERG Ets-DNA blk	LDHA block	Anesthetic bind
O=c1[nH]c(=O)n([C@@H]2C[C@H](O)[C@H](CO)O2)cc1C(F)(F)F
 : 10%[21 µM]	-4%[12 µM]	.	.	9%[29.3 µM]
CCCCCCCCCCCC(=O)O[C@H](CC(=O)O)C[N+](C)(C)C
 : 1%	-6%[19.4 µM]	.	.	.
CCCCC/C=C\C/C=C\CCCCCCCC(=O)O
 : 10%&6%&9%	?	.	.	-5%

# Structures listed so far printed as active in APEX1 inh.
# The line under a structure holds: APEX1 inh	Pol kappa inh	ERG Ets-DNA blk	LDHA block	Anesthetic bind
N#C/C(=C\c1ccc(O)c(O)c1)C(=O)c1ccc(O)c(O)c1
 : 0.095µM*	0.34µM*	48%[activator]	-90*	.

# Single records, from the list above. Values in the order: APEX1 inh	Pol kappa inh	ERG Ets-DNA blk	LDHA block	Anesthetic bind
# Profile of CN1C(C(=O)Nc2ccccn2)=C(O)c2sccc2S1(=O)=O → 2%	-17%	-2%	-7	-6%
# Profile of Cc1cccc(NC(=O)CCc2nc3sc4c(c3c(=O)[nH]2)CCCC4)n1 → -28%	?	12%	2	.
# Profile of COc1ccc2cc([C@@H](C)C(=O)O)ccc2c1 → 22%	-12%	13%	-7	.
